Compound activity: PubChem BioAssay, National Center for Advancing Translational Sciences (NCATS)
TRPV1 potentiator = human TRPV1 potentiation; TRPV1-expressing cells, Fluo-8 calcium influx, capsaicin EC20 potentiation; host cell line not named in the record; control for the full effect not named in the record; AID 540277; 320,000 tested, 0.02% active; Q8NER1; potentiation, % at 8.33 µM; active means potentiation above 80%; inconclusive means 30% to 80%; inactive means below 30%; note: 0% is about no effect
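TRPV1-expressing cells were cultured overnight at 35.5C and loaded with Fluo-8 calcium dye for 40 to 90 min at room temperature. After a 10 s baseline, compound was added and calcium influx was read kinetically for 3 min (ex 480/em 520 nm).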
gsp antagonist = antagonizes gsp, the McCune-Albright syndrome mutation. gsp-mutant cells, cAMP HTRF, 30 min; control for the full effect not named in the record. 340,000 tested, 0.4% active. Potency, µM (doses to about 76.9 µM), for inactives: top-dose activity change, negative = inhibition, usual class: inhibitors; active = falling curve of any shape with a large fitted effect; inconclusive = falling curve, mostly with a smaller effect; inactive = flat or rising curve; cell line not stated here;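 note: intracellular cAMP measured with PDE inhibitor Ro 20-1724 present during compound exposure; potency is the fitted concentration of half-maximal effect; % is set by controls: 0 for no effect and ±100 for the full control effect; nearly all actives have a fitted effect of over 65% in size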
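HTRF cAMP measurement after 30 min RT detection following 30 min, 37C compound treatment alongside […] (added as 300 uM solution) in G418-selected cells seeded at 2000/well and grown 16–24 h.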
CtBP-E1A inh = blocks the CtBP interaction with E1A. activity change, % (test concentration not listed). AlphaScreen GST-E1A/His-CtBP binding, 1536-well; hits give low values; control for the full effect not named in the record. 340,000 tested, 0.49% active; in the data active means activity change below about -65%; inconclusive means about -30% to -65%; inactive means above about -30%; note: % is set by controls: 0 for no effect and ±100 for the full control effect; compound concentration not given in the record
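In 5 uL wells, 23 nL compound meets equimolar GST-E1A and His-CtBP (5X stock 125 nM each) for 2 h, 37 °C. Beads (5X, 50 ug/mL) then 1 h, 37 °C, dark.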
ClpP mod = qHTS Assay for Activators of ClpP. ATP-dependent Clp protease proteolytic subunit (Bacillus subtilis (strain 168)), P80244. purified B. subtilis ClpP, FRET peptide cleavage, 20 min. Potency, µM (top dose mostly 57.5 µM), for inactives: at the highest dose activity change, negative = active. 340,000 tested, 1.9% active; active = well fitted falling curve with a large enough effect; inconclusive = small, poorly fitted or top-dose-only effect; inactive = no such curve, though single readings can be large or run the other way; note: potency is the fitted concentration of half-maximal effect; the source files actives as falling curves though it sought activators and does not explain the sign; nearly all actives have a fitted effect of over 65% in size; many hits overshoot -100%
Target sequence (P80244 whole entry, looked up): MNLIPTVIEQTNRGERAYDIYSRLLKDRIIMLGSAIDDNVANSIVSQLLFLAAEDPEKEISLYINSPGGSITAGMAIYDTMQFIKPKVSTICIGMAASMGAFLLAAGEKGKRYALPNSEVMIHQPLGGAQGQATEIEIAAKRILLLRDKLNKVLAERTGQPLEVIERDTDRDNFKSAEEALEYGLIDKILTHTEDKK
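Buffer: 100 mM Tris/HCl pH8, 100 mM KCl, 0.05% low protease BSA, 2.5% glycerol, 0.01% Tween-20. ClpP 10 microg/mL final; 20 min RT; delta FRET normalized to ADEP and DMSO controls.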
gsp ag = agonists of gsp mutant (McCune-Albright syndrome); Potency, µM (top dose mostly 76.9 µM), inactives show at the highest dose activation (cAMP increase), actives largely listed as activators; 340,000 tested, 0.13% active; gsp mutant cells, cAMP HTRF, 30 min; control for the full effect not named in the record; active = well fitted activation curve with a large enough effect; inconclusive = small, poorly fitted or top-dose-only effect, or another doubt; inactive = no such curve, though single readings can be large or run the other way; cell line not stated here;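 note: phosphodiesterase inhibitor Ro 20-1724 added with compounds to block cAMP breakdown; potency is the fitted concentration of half-maximal effect; nearly all actives have a fitted effect of over 60% in size; about a fifth of the inactives were tested at one dose only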
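Cells stably selected in G418 were plated at 2000/well, grown 16-24 hr, then given compounds in DMSO with the PDE inhibitor […] (300 uM solution added) for 30 min at 37C; cAMP was read by HTRF.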
Menin-MLL FL inh = inhibitors of human menin-MLL interaction, wild-type MLL peptide; Fluorescence polarization, fluorescein-MLL peptide displacement from menin; FP activity change, % at 61.4 µM; 290,000 tested, under 10 active; AID 1766; inconclusive = falling polarisation curve, or a change in total fluorescence; inactive = total fluorescence flat and polarisation flat or rising; no compound was filed as active; the % refers to the polarisation; negative = inhibition;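 note: % of control where 0% means no effect; inhibitors lower the polarisation; unlabelled MLL peptide was the positive control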
Sfp inh = inhibitors of Bacillus subtilis Sfp phosphopantetheinyl transferase; Q9F4F7; Potency, µM, for inactives: max response, negative = inhibition, usual class: inhibitors; 310,000 tested, 3.5% active; Biochemical Sfp PPTase activity, qHTS; active = well fitted inhibition curve with a large enough effect; inconclusive = small, poorly fitted or top-dose-only effect, or another doubt; inactive = no such curve, though single readings can be large or run the other way;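 note: the enzyme is Sfp with the accession as filed and its product quenches rhodamine fluorescence; potency is the fitted concentration of half-maximal effect; 0% = enzyme reaction without inhibitor and -100% = no enzyme wells; top concentration of the series not given in the record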
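Compounds were incubated with enzyme (final 15 nM) for 15 min at room temperature before substrate addition started the reaction. Fluorescence at 525 nm excitation, 598 nm emission was recorded immediately and after 30 minutes.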
* = called active by the depositor; ? = inconclusive; . = not tested or not shown; & = joins results of further samples; [ ] = another dose, or the depositor's remark.

no. | compound | TRPV1 potentiator | gsp antagonist | CtBP-E1A inh | ClpP mod | gsp ag | Menin-MLL FL inh | Sfp inh
1 | COc1ccc(/C=C/C(=O)Nc2nc(N)n(-c3ccccc3)n2)cc1 | -11 | -4% | 0 | -0.9% | ? | 2.1 | 22%
2 | O=C(CNC(=O)c1cc2c(n(-c3ccccc3)c1=O)CCCC2=O)c1ccccc1 | -7 | -6% | -7 | 28µM* | 4% | . | 17%
3 | NC(=O)c1cc(S(=O)(=O)N2CCOCC2)ccc1N1CCCC1 | 7 | -1% | -7 | -0.1% | -28% | 2.9 | 12%
4 | COC(=O)/C(=C/c1ccc(F)cc1)NC(C)=O | 18 | 9% | 14 | -1.9% | 8% | 7.6 | -1%
5 | Cc1cc(C)n2nc(C(=O)N(C)C(c3ccccc3)c3ccccc3)nc2n1 | 21 | -25% | -24 | . | -7%[15.4 µM] | 1.5 | 16%
6 | COC1=NS(=O)(=O)c2ccccc21 | 0 | 10% | 11 | 1.3% | -29% | 3.5 | -13%
7 | [O-]/[N+](=C\c1ccncc1)c1ccc(Br)cc1 | 4 | 10% | -1 | 45% | -7% | -0.3 | ?
8 | Cc1cc(-n2c(C)cc(C(=O)CSc3nc(N)cc(=O)[nH]3)c2C)no1 | -11 | -14% | -12 | -2.1% | 24% | -6.4 | ?
9 | CN1CCN(S(=O)(=O)c2cccc(C(=O)Oc3cccc(C#N)c3)c2)CC1 | 2 | -18% | 3 | -1.5% | -17% | . | .
10 | CN(C)CCN(C(=O)c1ccc2c(c1)OCCO2)c1nc2ccc(Cl)cc2s1 | 14 | 7% | -1 | . | 18%[15.4 µM] | 3.0 | 7%

New compounds follow.
no. | compound | TRPV1 potentiator | gsp antagonist | CtBP-E1A inh | ClpP mod | gsp ag | Menin-MLL FL inh | Sfp inh
11 | CN=c1nc(-c2ccccc2)n(-c2ccccc2)s1 | -26 | 1% | 1 | 0.0%&2.7% | . | 6.6 | .
12 | COc1cc(Nc2cc(C)nc3ncnn23)cc(OC)c1OC | -27 | 4% | -2 | 1.9% | 2% | -2.1 | 4%
13 | N#Cc1c(NC(=O)c2ccc(Cn3cc(Br)cn3)o2)sc2c1CCCCC2 | -14 | -7% | 9 | -14% | 28% | 10 | ?
14 | CCOC(=O)c1ccc(Nc2cc(C)nc(-c3ccccc3O)n2)cc1 | ? | -20% | 7 | -9.6% | 22% | 1.4 | 0%
15 | COC(=O)c1cccc(NC(=O)CCCN2C(=O)NC3(CCCC3)C2=O)c1 | 2 | 1% | 2 | ? | -61%[inhibitor] | . | .
16 | CCC1=C(OC(=O)N(CC)CC)N2C(=O)OC(=NCC(=O)OC)[C@]2(Cc2ccccc2)[C@H]2C1=CC[C@H]1C(=O)N(CC(=O)OC)C(=O)[C@H]12 | ? | -17% | 5 | -0.3% | . | -3.3&-0.6 | 4%&8%
17 | COCC(=O)N1CCC(Oc2ccc(C(=O)N3CCCCCCC3)cc2)CC1 | -4 | -14% | 8 | 2.5% | -24% | 2.4 | 5%
18 | COC(=O)c1ccccc1NC(=O)N1CCN(Cc2ccco2)CC1 | 6 | 6% | . | -23% | 6% | -2.8 | 1%
19 | CC(=O)Nc1ccc(NC(=O)Cn2c(-c3ccc(F)cc3)cnc2SCC(=O)Nc2c(C)cccc2C)cc1 | . | 10% | -6 | -2.5% | -43%[inhibitor] | 3.1 | ?
20 | CCCCN1C(=N)N([C@@H](CCC)CN2CCC[C@H]2CN2C(N)=NC[C@@H]2Cc2ccccc2)C[C@H]1[C@H](C)CC | . | -1% | -2 | 0.1% | . | . | .

Single records (already shown). Values in the order: TRPV1 potentiator | gsp antagonist | CtBP-E1A inh | ClpP mod | gsp ag | Menin-MLL FL inh | Sfp inh
`CN1CCN(S(=O)(=O)c2cccc(C(=O)Oc3cccc(C#N)c3)c2)CC1` is listed as 2 | -18% | 3 | -1.5% | -17% | . | .
`COC(=O)c1cccc(NC(=O)CCCN2C(=O)NC3(CCCC3)C2=O)c1` is listed as 2 | 1% | 2 | ? | -61%[inhibitor] | . | .

Returning to the listing with the five entries that preceded the break.
no. | compound | TRPV1 potentiator | gsp antagonist | CtBP-E1A inh | ClpP mod | gsp ag | Menin-MLL FL inh | Sfp inh
16 | CCC1=C(OC(=O)N(CC)CC)N2C(=O)OC(=NCC(=O)OC)[C@]2(Cc2ccccc2)[C@H]2C1=CC[C@H]1C(=O)N(CC(=O)OC)C(=O)[C@H]12 | ? | -17% | 5 | -0.3% | . | -3.3&-0.6 | 4%&8%
17 | COCC(=O)N1CCC(Oc2ccc(C(=O)N3CCCCCCC3)cc2)CC1 | -4 | -14% | 8 | 2.5% | -24% | 2.4 | 5%
18 | COC(=O)c1ccccc1NC(=O)N1CCN(Cc2ccco2)CC1 | 6 | 6% | . | -23% | 6% | -2.8 | 1%
19 | CC(=O)Nc1ccc(NC(=O)Cn2c(-c3ccc(F)cc3)cnc2SCC(=O)Nc2c(C)cccc2C)cc1 | . | 10% | -6 | -2.5% | -43%[inhibitor] | 3.1 | ?
20 | CCCCN1C(=N)N([C@@H](CCC)CN2CCC[C@H]2CN2C(N)=NC[C@@H]2Cc2ccccc2)C[C@H]1[C@H](C)CC | . | -1% | -2 | 0.1% | . | . | .
21 | CN(C(=O)c1ccc(NC(=O)Cc2ccc(NC(=O)C3CCN(C(=O)C4CCCC4)CC3)cc2)cc1)C1CC1 | 1 | 9% | . | -0.2% | -16% | . | .
22 | CCOc1ccc(N2C(=O)C3C4C=CC([C@H]5CC45)[C@@H]3C2=O)cc1 (some centres undefined) | 5 | 0% | 4 | 1.1% | -33%[inhibitor] | -0.4 | -7%
23 | CCCNS(=O)(=O)c1ccc(OC)c(Cl)c1Cl | 5 | 3% | 8 | -1.4% | -36%[inhibitor] | 5.3 | 4%
24 | Cc1ccc(C(=O)N2CCN(c3ccccc3F)CC2)cc1NC1=NC2CS(=O)(=O)CC2S1 (centres undefined) | 0 | 7% | -11 | -2.2% | 14% | . | 6%
25 | Cc1ccc(-c2nc(CSc3nc4ccccc4c(=O)n3C)cs2)cc1 | 17 | 5% | 6 | -14% | -1% | 1.5 | ?
26 | C/C(=N/OC(=O)C1CC1c1ccccc1)c1ccccc1 (centres undefined) | -18 | 6% | 19 | -0.2% | -68% | -0.6 | 19%
27 | COc1ccc(NC(=O)CCS(=O)(=O)c2ccc(OC)cc2)cc1 | 4 | 6% | 1 | 1.8% | ? | 1.1 | -26%
28 | Nc1nonc1-n1nnc(C(=O)N/N=C/c2ccc(Cl)cc2Cl)c1CN1CCCC1 | ? | 7% | 0 | . | 10%[15.4 µM] | -13 | 4%
29 | CC1CCCC(NC(=O)Cn2cc([N+](=O)[O-])ccc2=O)C1C (centres undefined) | 1 | 9% | . | 0.1% | -24% | . | .
30 | CSCCC(=O)N1CCCC(N(C)CCc2ccccc2)C1 (centres undefined) | -7 | -1% | . | -2.8% | -8% | 0.0 | 8%

Next section
no. | compound | TRPV1 potentiator | gsp antagonist | CtBP-E1A inh | ClpP mod | gsp ag | Menin-MLL FL inh | Sfp inh
31 | CC1CN(Cc2cc(=O)[nH]c(C3CC3)n2)CC(C)O1 (centres undefined) | -9 | 10% | 9 | 0.4% | 39% | -2.6 | -2%
32 | CCC1=C2CC[C@H]3C(=O)NC(=O)[C@H]3[C@H]2[C@@]2(Cc3ccccc3)C(=NCC(=O)OC)OC(=O)N2C1=O | ? | 8% | 4 | 1.1% | . | -5.3&7.2 | 14%&15%
33 | CN1CCN(NC(=O)c2cccc(Br)c2)CC1 | 4 | 17% | -3 | -2.7% | 13% | 3.1 | 6%
34 | COc1ccc(NC(=O)C2(c3ccc(NC(=O)c4ccc(C)cc4)cc3)CCCC2)cc1 | -6 | 3% | 3 | ? | 1% | 2.2 | 22%
35 | CC(C)c1cc(CN2CCN(Cc3ccc(F)c(F)c3)C(CCO)C2)[nH]n1 (centres undefined) | -1 | 6% | 4 | . | -2% | 0.0 | 5%

3 compounds out of the list, ordered by formula weight, highest first.
no. | compound | TRPV1 potentiator | gsp antagonist | CtBP-E1A inh | ClpP mod | gsp ag | Menin-MLL FL inh | Sfp inh
35 | CC(C)c1cc(CN2CCN(Cc3ccc(F)c(F)c3)C(CCO)C2)[nH]n1 (centres undefined) | -1 | 6% | 4 | . | -2% | 0.0 | 5%
30 | CSCCC(=O)N1CCCC(N(C)CCc2ccccc2)C1 (centres undefined) | -7 | -1% | . | -2.8% | -8% | 0.0 | 8%
31 | CC1CN(Cc2cc(=O)[nH]c(C3CC3)n2)CC(C)O1 (centres undefined) | -9 | 10% | 9 | 0.4% | 39% | -2.6 | -2%

No enrichment for hits; about 5.3% have a hit in one of these screens.
